From PubChem BioAssay
A1 inh = inducers of caspase activity in MEF A1-2A-BIM cells, primary screen, A1 inhibitor project, cell-based, CaspaseGlo luminescence. caspase-Glo luminescence, 3 h; percent of clofoctol signal, DMSO as zero. caspase activation, % (test concentration not listed). 21,000 compounds, 0.51% hits. AID 2241, 2010;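 active means most replicate scores above 10, or exactly half above 10 with mean activity above 10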;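 further: effector caspase 3 and 7 activity cleaving a DEVD luciferin substrate; 50 nL library stock added to about 30 µL; numbers are from one replicate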
BJeLR viability = BJeLR cell viability loss, primary screen, luminescence, CellTiterGlo ATP. BJeLR fibroblasts viability, 48 h; HRASV12, hTERT and SV40 LT/ST transformed. viability loss activity score, % (concentration not given with the values). 30,000 compounds, 0.64% hits; in the data active means viability loss activity score above about 50%; about a fifth of its hits are not listed in these tables;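 further: higher score means fewer live cells and less ATP luminescence; stock transfer was 50 or 100 nL into about 30 µL; 0% = vehicle wells and 100% = a reference killing control; one replicate is shown; the record names a cut of 85%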
Numbers without * were called inactive; · = no result given.

SMILES	A1 inh	BJeLR viability
Cc1ccc(S(=O)(=O)Nc2ccc3c(c2)C(=O)N([C@H](C)CO)C[C@H](C)[C@@H](CN(C)S(=O)(=O)c2cccs2)O3)cc1	-0.1	-0.2
COc1c2ccoc2c(OC)c2oc(=O)ccc12	0.3	1.5
Cn1ncc2c1ncn1nc(Cc3ccccc3)nc21	1.2	-1.9
O=C(CN1C(=O)/C(=C\c2ccc(C(F)(F)F)cc2)Sc2ccccc21)N1CCc2ccccc2C1	·	0.6
CCOC(=O)CSc1nc2c(sc3ccccc32)c(=O)n1Cc1ccccc1	-0.6	0.4
CC(C)c1ccc(NCC(O)CSc2ccccc2)cc1 (stereo not given)	0.7	0.2
CNc1[nH]cnc(=S)c1N	-0.1	-2.0
Cc1noc(C)c1S(=O)(=O)Nc1ccc2c(c1)C(=O)N([C@@H](C)CO)C[C@@H](C)[C@@H](CN(C)Cc1ccccc1)O2	0.8	-0.1
O=C(N[C@H](COC(=O)[C@H](Cc1ccccc1)NC(=O)c1ccccc1)Cc1ccccc1)c1ccccc1	0.2	1.2
Cc1cccc2c1-c1sc(C(=O)Nc3ccc(S(N)(=O)=O)cc3)cc1CO2	0.1	4.5
C[C@@H]1CN([C@H](C)CO)C(=O)c2cccc(NC(=O)c3ccncc3)c2O[C@H]1CN(C)C	·	0.5
COc1ccc(NC(=O)N(C)C[C@H]2Oc3ccc(NC(=O)Nc4ccc5c(c4)OCO5)cc3C(=O)N([C@H](C)CO)C[C@@H]2C)cc1	0.1	-0.6
C[C@H](CO)N1C[C@H](C)[C@@H](CN(C)C(=O)Nc2ccc3c(c2)OCO3)Oc2ccc(NC(=O)Cc3cn(C)c4ccccc34)cc2C1=O	-0.4	-1.2
CC(=O)Oc1ccc(C(=O)c2ccccc2)c(OC(C)=O)c1	-0.1	-9.0
C[C@H]1CN([C@@H](C)CO)C(=O)c2cc(NC(=O)CCN3CCOCC3)ccc2O[C@H]1CN(C)C(=O)Nc1ccc2c(c1)OCO2	-0.1	5.3
O=C(c1cc2ccccc2c(=O)o1)N1CCN(C(c2ccccc2)c2ccccc2)CC1	-0.3	-3.1
COc1ccc(NC(=O)Nc2cccc3c2O[C@@H](CN(C)S(=O)(=O)c2ccccc2)[C@@H](C)CN([C@@H](C)CO)C3=O)cc1	·	-0.5
COc1cc(O)cc(/C=C/c2ccccc2)c1	-5.6	0.6
Cc1ccc(C)n1-c1nn(S(C)(=O)=O)c2cccc(F)c12	·	-3.1
Cc1ccc(S(=O)(=O)Nc2ccc3c(c2)C(=O)N([C@@H](C)CO)C[C@@H](C)[C@@H](CN(C)C(=O)NC(C)C)O3)cc1	1.2	6.6
C[C@@H]1CN([C@H](C)CO)C(=O)c2cccc(NS(=O)(=O)c3ccc(F)cc3)c2O[C@H]1CN(C)S(=O)(=O)c1ccc(Cl)cc1	·	0.4
Cc1ccc2[nH]c(CCN(C)C)c(CC#N)c2c1	0.8	3.2
COc1ccc(NC(=O)Nc2ccc3c(c2)C(=O)N([C@@H](C)CO)C[C@H](C)[C@@H](CN(C)Cc2ccc(Oc4ccccc4)cc2)O3)cc1	-1.2	0.0
COc1ccccc1S(=O)(=O)Cc1ccc(C(=O)NC(C)c2ccc3c(c2)OCCO3)o1 (stereo not given)	·	5.3
C[C@H]1CN([C@@H](C)CO)C(=O)c2cccc(NC(=O)Nc3cccc4ccccc34)c2O[C@H]1CN(C)C(=O)Nc1ccc(C(F)(F)F)cc1	·	5.2

Given bar-delimited: 4 of the compounds above.
SMILES | A1 inh | BJeLR viability
CCOC(=O)CSc1nc2c(sc3ccccc32)c(=O)n1Cc1ccccc1 | -0.6 | 0.4
CNc1[nH]cnc(=S)c1N | -0.1 | -2.0
CC(=O)Oc1ccc(C(=O)c2ccccc2)c(OC(C)=O)c1 | -0.1 | -9.0
C[C@@H]1CN([C@H](C)CO)C(=O)c2cccc(NC(=O)c3ccncc3)c2O[C@H]1CN(C)C | · | 0.5

(continued)
SMILES	A1 inh	BJeLR viability
CN(C)c1ccc(/C=C2\CCC(C3CCCC3)C2=O)cc1 (stereo not given)	·	-0.6
O=C(CCn1c(=O)oc2ccccc21)NCCCN1CCN(c2ccc(F)cc2)CC1	·	-3.2
O=C(CCn1c(=O)oc2ccccc21)N1CCCCCC1	·	-5.0
CC(=O)Nc1ccc(S(=O)(=O)N(C)C2CCCCC2)cc1	-0.5	4.5
C[C@H](CO)N1C[C@H](C)[C@@H](CN(C)Cc2ccc(C(=O)O)cc2)Oc2c(NC(=O)c3cnccn3)cccc2C1=O	·	4.3
C[C@H](NCCc1ccc(O)cc1)[C@H](O)c1ccc(O)cc1	-0.8	3.6
C[C@H](CO)N1C[C@H](C)[C@H](CN(C)CC2CC2)Oc2c(NC(=O)C3CCCCC3)cccc2C1=O	·	6.7
Cc1noc(C)c1S(=O)(=O)Nc1ccc2c(c1)C(=O)N([C@@H](C)CO)C[C@@H](C)[C@@H](CN(C)S(=O)(=O)c1c(C)noc1C)O2	-0.5	-5.2
C[C@H](CO)N1C[C@H](C)[C@H](CN(C)Cc2ccccc2)Oc2c(NC(=O)c3nc4ccccc4s3)cccc2C1=O	·	6.2
S=c1[nH]nc(-c2ccccc2)n1/N=C\c1cccs1	·	-0.7
C[C@@H]1CN([C@@H](C)CO)C(=O)c2cc(NC(=O)NC3CCCCC3)ccc2O[C@H]1CN(C)C(=O)Nc1ccccc1	0.7	2.6
C=CCSc1nc(N)cc(=O)[nH]1	0.8	12
Cc1noc(C)c1NC(=O)Nc1ccc2c(c1)C(=O)N([C@H](C)CO)C[C@H](C)[C@@H](CN(C)C(=O)NC(C)C)O2	0.0	5.3
C[C@H]1CN([C@@H](C)CO)C(=O)c2cccc(NC(=O)c3ccc(-c4nccs4)cc3)c2O[C@H]1CN(C)C(=O)Nc1ccc2c(c1)OCO2	·	4.7
COc1cc(=O)n(C)c2cc(N(C)C)ccc12	0.0	-4.8
C[C@H]1CN([C@@H](C)CO)C(=O)c2cccc(NS(C)(=O)=O)c2O[C@H]1CN(C)S(=O)(=O)c1ccc(F)cc1	·	-0.1
CC(O)Cn1cnc2c1c(=O)n(C)c(=O)n2C (stereo not given)	-0.1	5.7
Cc1ccc(C2=NN(C(=O)CCC(=O)O)C(c3cn(-c4ccccc4)nc3-c3ccc(C)cc3)C2)cc1 (stereo not given)	0.3	5.5
O=C(Oc1cc(OC(=O)c2ccccc2)c2c(c1)O[C@H](c1ccc(OC(=O)c3ccccc3)c(OC(=O)c3ccccc3)c1)[C@@H](OC(=O)c1ccccc1)C2)c1ccccc1	0.1	-1.0
C[C@@H]1CN([C@H](C)CO)C(=O)c2cc(NS(=O)(=O)c3ccc(F)cc3)ccc2O[C@H]1CN(C)C(=O)Nc1cccc2ccccc12	0.1	-3.1
C[C@@H]1CCC2C(C)(C)[C@H](O)CC[C@]2(C)[C@@]12Cc1c(O)cc3c(c1O2)CNC3=O (stereo not given in full)	-0.2	-2.7
COc1ccc(NC(=O)Nc2cccc3c2O[C@H](CN(C)C(=O)Nc2ccc4c(c2)OCO4)[C@H](C)CN([C@H](C)CO)C3=O)cc1	·	0.7
C[C@@H]1CN([C@@H](C)CO)C(=O)c2cccc(N(C)C)c2O[C@H]1CN(C)S(=O)(=O)c1ccccc1	·	-7.5
Cc1cc(C)c(C(=O)C/C(=N/O)C(F)(F)F)c(=O)[nH]1	·	-5.2
CC(=O)N1N=C(N)SC12CCCC2	-0.4	-2.5

The list goes on, overlapping the part above by 5 compounds.
SMILES	A1 inh	BJeLR viability
C[C@@H]1CCC2C(C)(C)[C@H](O)CC[C@]2(C)[C@@]12Cc1c(O)cc3c(c1O2)CNC3=O (stereo not given in full)	-0.2	-2.7
COc1ccc(NC(=O)Nc2cccc3c2O[C@H](CN(C)C(=O)Nc2ccc4c(c2)OCO4)[C@H](C)CN([C@H](C)CO)C3=O)cc1	·	0.7
C[C@@H]1CN([C@@H](C)CO)C(=O)c2cccc(N(C)C)c2O[C@H]1CN(C)S(=O)(=O)c1ccccc1	·	-7.5
Cc1cc(C)c(C(=O)C/C(=N/O)C(F)(F)F)c(=O)[nH]1	·	-5.2
CC(=O)N1N=C(N)SC12CCCC2	-0.4	-2.5
C[n+]1ccc(/C=C/c2ccccc2O)c2ccccc21	-0.5	2.3
CCOC(=O)c1sc(N2CCCCC2)c2c1CC(C)(C)CC2=O	-0.2	-8.5
Cc1noc(C)c1NC(=O)N(C)C[C@H]1Oc2ccc(NC(=O)c3ccncc3)cc2C(=O)N([C@H](C)CO)C[C@@H]1C	1.0	2.4
CCOC(=O)c1sc(S(C)(=O)=O)c2c1CC(C)(C)C/C2=N/O	-0.3	-2.4
O=C(O)C1CC=CCC1C(=O)N1CCN(C/C=C/c2ccccc2)CC1 (stereo not given)	·	-2.6
CCOC(=O)c1cn(Cc2cccc(Cl)c2)c2cc(C)nn2c1=O	0.0	0.7
Cn1c(O)c(C=Nc2cccc(CO)c2)c2ccccc21	-3.0	2.5
c1ccc(CCNc2nc3ccccc3n3cnnc23)cc1	·	-2.6
C[C@@H]1CN([C@@H](C)CO)C(=O)c2cccc(NC(=O)c3ccncc3)c2O[C@H]1CN(C)S(=O)(=O)c1cn(C)cn1	·	-4.0
COc1ccc(S(=O)(=O)Nc2ccc3c(c2)C(=O)N([C@H](C)CO)C[C@@H](C)[C@H](CN(C)S(=O)(=O)c2ccccc2)O3)cc1	-0.1	1.2
CCn1c(C(=O)N2CCC(C(=O)N3CCCCC3)CC2)cc2sccc21	0.5	-5.2
O=C(C/C(=C1/Cc2ccccc2C1=O)c1ccccc1)c1ccccc1	0.0	-2.7
C[C@@H]1CN([C@@H](C)CO)C(=O)c2cccc(NC(=O)Nc3ccccc3)c2O[C@@H]1CN(C)C	·	-2.4
CCCCN(C)c1ccc(C(=O)OC)cc1NC(=S)Nc1cccc(C)c1	-1.0	-4.2
COc1ccc(S(=O)(=O)Nc2cccc3c2O[C@@H](CN(C)C(=O)Nc2ccc(C(F)(F)F)cc2)[C@@H](C)CN([C@H](C)CO)C3=O)cc1	·	-1.6
CC(=O)Nc1cc(C(=O)N2CCN(c3cc(Cl)ccc3C)CC2)ccc1Sc1ccc(F)cc1	0.1	0.8
Cc1c(C(=O)O)sc2nc3n(c(=O)c12)CCC3	·	-24
C[C@H](CO)N1C[C@H](C)[C@@H](CN(C)S(C)(=O)=O)Oc2ccc(NC(=O)Nc3ccc(C(F)(F)F)cc3)cc2C1=O	0.2	-3.2
CCCN(CCc1ccccc1)C1CCc2c(O)cccc2C1 (stereo not given)	0.2	1.3
CCOC(=O)c1cc(Sc2ccccc2NC(=O)c2ccccc2)cc(C(=O)OCC)n1	0.0	-3.8
C[C@@H]1CN([C@@H](C)CO)C(=O)c2cc(NC(=O)Nc3ccccc3)ccc2O[C@@H]1CN(C)Cc1ccc2c(c1)OCO2	-0.5	-1.2
Cc1noc(C)c1NC(=O)Nc1cccc2c1O[C@@H](CN(C)Cc1ccc3c(c1)OCO3)[C@H](C)CN([C@@H](C)CO)C2=O	·	4.4
C[C@H]1CN([C@@H](C)CO)C(=O)c2cc(NC(=O)Nc3ccccc3)ccc2O[C@@H]1CN(C)Cc1ccncc1	-0.8	2.7
CCC(Sc1nc2ccccc2c2nc3ccccc3n12)C(=O)N1CCOCC1 (stereo not given)	0.0	-0.9
C[C@H](CO)N1C[C@H](C)[C@@H](CN(C)CC2CCCCC2)Oc2c(NC(=O)c3ccc(-c4nccs4)cc3)cccc2C1=O	·	-6.8

Additional results follow.
SMILES	A1 inh	BJeLR viability
C=CCc1ccc(O[C@@H]2O[C@H](CO[C@@H]3O[C@@H](C)[C@H](O)[C@@H](O)[C@H]3O)[C@@H](O)[C@H](O)[C@H]2O)c(O)c1	0.9	0.9
Cc1cc(C(=O)Nc2cccc3c2O[C@H](CN(C)C(=O)NC(C)C)[C@H](C)CN([C@H](C)CO)C3=O)n(C)n1	·	0.0
N#CSCC(=O)C12CC3CC(CC(C3)C1)C2	36*	23
C[C@@H]1CN([C@@H](C)CO)C(=O)c2cccc(NC(=O)c3nc4ccccc4s3)c2O[C@H]1CN(C)Cc1ccncc1	·	-6.2
CCCn1c(SCC(=O)N2c3ccccc3Sc3ccccc32)nc2ccccc21	0.5	-1.7
COc1ccc(-c2csc(-c3c(C)noc3N(C(C)=O)C(C)=O)n2)cc1	1.2	8.5
O=C(NC1CCN(C(=O)c2c(Cl)cccc2Cl)CC1)C1CCCCC1	0.6	-6.2
COc1ccc(CN(C)C[C@H]2Oc3c(NS(=O)(=O)c4ccc(C)cc4)cccc3C(=O)N([C@H](C)CO)C[C@@H]2C)cc1	·	-0.3
O=C(NCCc1ccccc1)c1ccc2c(c1)N(Cc1ccccc1)CCS2	0.5	2.5
Cc1noc(C)c1NC(=O)Nc1ccc2c(c1)C(=O)N([C@@H](C)CO)C[C@@H](C)[C@@H](CN(C)Cc1ccc(C(=O)O)cc1)O2	0.9	-1.2
COc1ccc(CN2CNc3c(c(C)nn3-c3ccccc3)C2)cc1	·	0.0
Cc1c(C(=O)O)oc2ccc(S(=O)(=O)NC3CCCCC3C)cc12 (stereo not given)	-0.2	7.3
O=C1NC(=O)N(c2ccccc2F)C(=O)/C1=C/c1cn(CC(=O)N2CCCC2)c2ccccc12	0.1	-2.2
C[C@H](CO)N1C[C@H](C)[C@H](CN(C)Cc2ccncc2)Oc2ccc(NC(=O)CCCN(C)C)cc2C1=O	0.4	6.6
CN(C(=O)c1ccc2c(c1)C(=O)N(CCC1=CCCCC1)C2=O)C1CCCCC1	-0.2	-1.4

Only part of the results is shown. The share of hits here may be higher or lower than overall.
